Rango release inh: inhibition of RanGTP-driven Rango-importin beta dissociation; O95149+P62826; Biochemical FRET Rango-importin beta, RanGTP-induced dissociation; Potency, µM (top dose mostly 46.1 µM), for the others: top-dose activity change, negative = inhibition; 340,000 tested, 0.071% active; active means falling FRET ratio curve, often poorly fitted, with flat reads before Ran was added; inconclusive means other falling curves, or compound fluorescence or quenching; inactive means flat or rising ratio curve;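 note: potency is the fitted concentration of half-maximal effect; % of control where 0% means no effect; nearly all actives have a fitted effect of over 45% in size; -100% = wells without RanGTP and RCC1; the record marks most hits as doubtful in a second field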
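FRET read at 45 min, room temperature: inhibitors block the CFP/YFP signal rise when RanGTP (0.6 uM Ran, 2 mM GTP, 0.2 uM RCC1) frees Rango (0.1 uM) from importin beta (0.25 uM). Pre-read after 5 min compound exposure flags interference.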
miR-21 FLuc: raises the signal of a miR-21 reporter; 340,000 tested, under 10 active; AID 2288; Potency, µM (top dose mostly 38.3 µM), for inactives: at the highest dose reporter change, positive = more light; HeLa miR-21 FLuc reporter, luciferase, 48 h; active = well fitted rising curve with a large enough effect; inconclusive = small, poorly fitted or top-dose-only effect; inactive = no such curve, though single readings can be large or run the other way;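 note: % of control where 0% means no effect; miR-21 action dims this reporter so a rising signal means less miR-21 action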
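HeLa miR-21-FLuc reporter line, endogenous miR-21; 2000 cells/well in DMEM/10% FBS; compound titration up to ~40uM final, 48 h, 37 degree Celsius; luciferase detection reagent, 15 min lysis, CCD luminescence.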
GLA inh pH 4.5: blocks human alpha-galactosidase A at pH 4.5. purified enzyme, 4-MU-alpha-Gal fluorescence, pH 4.5. 230,000 tested, under 10 active. P06280. AID 1467. activity change, negative = inhibition, % at 105 µM; inconclusive = small, poorly fitted or top-dose-only inhibition, or a rising curve; inactive = flat fitted curve, though single readings scatter; no compound was filed as active;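 note: 0% = full activity with enzyme and -100% = basal without enzyme; dose as in the result columns while the protocol names 77 µM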
Target sequence (P06280 whole entry, looked up): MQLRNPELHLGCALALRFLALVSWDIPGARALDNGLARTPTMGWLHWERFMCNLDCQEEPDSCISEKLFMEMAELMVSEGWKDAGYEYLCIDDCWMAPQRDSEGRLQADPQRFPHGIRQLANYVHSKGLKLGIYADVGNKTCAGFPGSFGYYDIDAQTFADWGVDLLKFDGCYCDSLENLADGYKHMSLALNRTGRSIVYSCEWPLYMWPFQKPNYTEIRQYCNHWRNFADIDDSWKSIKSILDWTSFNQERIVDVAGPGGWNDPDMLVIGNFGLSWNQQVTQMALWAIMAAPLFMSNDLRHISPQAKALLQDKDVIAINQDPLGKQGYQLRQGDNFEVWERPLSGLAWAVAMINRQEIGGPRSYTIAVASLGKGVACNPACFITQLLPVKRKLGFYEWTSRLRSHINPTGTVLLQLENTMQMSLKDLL
Rango complex inh: inhibitors of Rango-importin beta complex formation; Q14974; Rango CFP/YFP FRET sensor + importin beta, 45 min; Potency, µM (titrated, usually from 92.2 µM), for the others: at the top dose inhibition of complex formation; 340,000 tested, 0.031% active; AID 540263; active = rising FRET ratio curve, often small or poorly fitted; inconclusive = mostly compound fluorescence or quenching in the first reads; inactive = flat curves in all reads;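 note: potency is the fitted concentration of half-maximal effect; 0% = DMSO wells and 100% = buffer wells lacking importin beta; nearly all actives have a fitted effect of over 15% in size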
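Inhibition scored from the CFP 486 nm/YFP 530 nm FRET ratio 45 min after adding 0.125 microM importin beta to 50 nM Rango biosensor preincubated 5 min with compound (room temperature, PBS with DTT, Tween-20, BSA). No-importin wells as positive control.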
* marks the source's active call; other numbers are inactive results; u = inconclusive; x = no result given; & = joins results of further samples.

GLA inh pH 4.5,miR-21 FLuc,Rango complex inh,Rango release inh,Compound
-7.5,0.9%,-0.3%,2.0%,CCN(CC)CCNC(=O)c1nn(-c2ccc(C)cc2)c(=O)c2c1c1ccccc1n2C
x,-1.5%,-0.9%,-15.0%,CC(C)=CCN1CCN(Cc2cn(C(C)C)c3ccccc23)CC1CCO (stereo unspecified)
-9.7&-14.8&-10.4&3.8,18.8%,-0.1%,8.2%,CN(C)CCCN1c2ccccc2CCc2ccc(Cl)cc21
8.1,-3.8%,1.3%,4.7%,Cc1ccc(N(CC(=O)NCCSCc2ccco2)S(C)(=O)=O)cc1
x,-14.2%,-0.1%,-11.4%,COc1cccc(-c2c(C(=O)N/N=C(\C)c3ccco3)nnn2-c2nonc2N)c1
0.3,-0.9%,8.7%,-12.3%,CNC(=O)C(=O)NCC1OCCN1S(=O)(=O)c1ccc2c(c1)OCCO2 (stereo unspecified)
x,2.5%,-5.6%,-7.4%,CC(NC(=O)C(=O)NCCN1CCN(C(=O)c2ccccc2Br)CC1)c1ccccc1 (stereo unspecified)
2.2,-1.6%,-0.5%,-0.4%,O=c1c2cnn(-c3ccccc3)c2ncn1Cc1cccc(Cl)c1
3.9,14.2%,5.2%,-16.0%,C/C=C/C(=O)N1CC2(CC(c3cccc(NC(=O)CC(c4ccccc4)c4ccccc4)c3)=NO2)C[C@H]1C(N)=O (stereo partly specified)
2.3&-9.8,0.8%,1.9%,0.5%,CCC1=C(OC(=O)N(CC)CC)N2C(=O)OC(=NCCOC)[C@]2(Cc2ccccc2)[C@H]2C1=CC[C@H]1C(=O)NC(=O)[C@H]12
x,x,-2.5%,-8.1%,COc1ccccc1N1CC(C(=O)NC2CCCCCC2)CC1=O (stereo unspecified)
x,x,6.2%,-14.1%,CN(Cc1ccc(Cl)cc1)C(=O)COC(=O)c1ccc(-c2ccc(O)cc2)cc1
7.0,-1.4%,-0.5%,-12.0%,COCc1cc(=O)n2[nH]c(SC)nc2n1
-0.6,-11.4%,u,u,CC(=O)c1ccc(NC(=O)COC(=O)c2ccccc2Nc2ccccc2)cc1
x,1.1%,4.5%,-10.8%,O=C(O)C1CC1(c1ccccc1)c1ccccc1 (stereo unspecified)
x,x,3.1%,-9.9%,O=C(NCc1cccc2ccsc12)c1cccs1
x,-2.5%,0.1%,-7.8%,COC(=O)CNC(=O)CSc1nc2sccc2c(=O)n1-c1ccccc1
x,-14.2%,-0.2%,-8.4%,CCOC(=O)N1CCN(Cc2nc3cc(NC(=O)c4ccco4)ccc3n2CC)CC1
-1.2,1.4%,u,-9.2%,O=C(c1ccco1)c1cn(CC(=O)N2CCCC2)c2ccccc12
x,-8.7%,-0.9%,0.5%,Cc1ccc(C(=O)N2CCN(S(=O)(=O)c3cc(Br)ccc3Br)CC2)o1
x,-0.9%,0.2%,0.3%,CCOC(=O)c1c(CN2CCN(c3ccccc3)CC2)oc2cc(Br)c(O)cc12
2.1,-2.5%,-3.5%,17.7%,O=C(OC1CCN(c2ncc(C(F)(F)F)cc2Cl)CC1)c1ccccc1
-0.3,-11.4%,0.2%,4.7%,CCOC(=O)c1c(/N=C/N(C)C)sc(C(=O)OC)c1C
x,0.5%,-2.5%,-4.4%,CC(=O)Nc1ccc(S(=O)(=O)N2CCC(NC(=O)C(Cc3ccc(C)cc3)NC(C)=O)CC2)cc1 (stereo unspecified)
0.7,3.2%,3.7%,3.4%,CC1CN(C(NC(=O)c2ccccc2)C(Cl)(Cl)Cl)CC(C)O1 (stereo unspecified)
x,u,-2.3%,0.3%,O=C(CCCc1nc(-c2ccccc2Cl)no1)NC1CCCC1
-15.1,-0.3%,u,u,N#C/C(=C\c1ccc(-c2ccccc2[N+](=O)[O-])o1)C(N)=O
2.0,-15.2%,-1.7%,7.9%,Cc1c(C(=O)/C=C/c2cccs2)oc2ccc(F)cc12
-22.8,-8.7%,-1.1%,0.1%,CCc1cc2c(cc3c(=O)n(CC(=O)NCCCN(CC)CC)nc(CC)n32)s1
-0.4,0.0%,1.0%,14.4%,Cc1ccc(-c2noc(CSc3nnc(Cc4ccccc4)n3-c3ccc(Cl)cc3)n2)cc1
-14.2,-3.1%,0.4%,-0.1%,COc1ccc(C)cc1NC(=O)C(NC(=O)c1cc(OC)c(OC)c(OC)c1)C(C)C (stereo unspecified)
-1.0,-1.5%,0.1%,4.1%,CCOC(=O)c1ccc(NC(=O)CC2C(=O)N(c3cccc(OC)c3)C(=O)N2CCOC)cc1 (stereo unspecified)
2.9,-9.4%,-1.5%,9.8%,Cn1c2ccc(F)cc2c2ncn(CC3CCCO3)c(=O)c21 (stereo unspecified)
x,-3.2%,0.1%,4.1%,O=C(NCCCN1CCOCC1)c1ccc(N2CCOCC2)c([N+](=O)[O-])c1
x,x,0.1%,-1.2%,CCOC(=O)C(Cc1c[nH]c2cc([N+](=O)[O-])ccc12)(NC(C)=O)C(=O)OCC
10.9,-13.3%,1.2%,15.2%,Cc1nnsc1C(=O)Nc1cccc(Cl)c1C
x,-43.5%,-2.1%,-15.3%,CC(=O)c1ccc(NC(=O)c2cc(C)nc3ccccc23)cc1
x,-2.5%,0.7%,28.3%,COc1ccccc1-c1nnc(SCC(=O)NC2CCCCC2)n1C
-1.1,-10.4%,u,u,CCCn1c(/C=C/c2ccco2)nc2ccccc21
-3.9,2.8%,0.9%,0.7%,COc1cc2ncnc(NCc3ccc(C)cc3)c2cc1OC
x,x,-2.6%,7.1%,Cc1ccc(S(=O)(=O)N2[C@@H](c3ccccc3)C(C(=O)O)=CC[C@H]2c2cccs2)cc1
-8.7,-2.8%,1.1%,-5.9%,C#CCOCCOCCOCCNc1nc(N2CCN(C(=O)[C@H](Cc3ccc(O)cc3)n3cc([C@@H](N)C(C)CC)nn3)CC2)nc(N2CCN(C(=O)[C@H](CCCCN)n3cc([C@@H](N)CO)nn3)CC2)n1 (stereo partly specified)
-12.7,-2.5%,-0.7%,-9.6%,COc1cccc(NC(=O)c2ccc(S(=O)(=O)N(C)C)cc2)c1
x,0.0%,-1.0%,-2.6%,Cc1ccc(C(C(=O)NC2CCCCC2)N(C(=O)c2csnn2)C2CC2)cc1 (stereo unspecified)
9.9,-3.4%,12.1%,11.5%,O=C(Nc1nccs1)c1ccc(NC(=O)C2CC=CCC2C(=O)O)cc1 (stereo unspecified)
-4.5,-69.0%,2.0%,0.4%,C=C(C)CSc1nncn1/N=C/c1ccc(OC)cc1
x,x,4.8%,-2.4%,C[C@H](CO)N1C[C@H](C)[C@@H](CN(C)S(=O)(=O)c2ccccc2)Oc2ccc(NS(=O)(=O)c3ccccc3)cc2C1=O
3.5,-5.7%,-3.8%,9.9%,Cc1cc(C)nc(SCC(=O)Nc2ccc(N3CCOCC3)cc2)n1
5.4,13.3%,-1.1%,-6.1%,CS/C(=C\[N+](=O)[O-])Nc1ccccc1
2.8,-3.3%,-4.6%,-2.8%,CCCC(=O)NCCc1nc2ccccc2n1C
-2.0,-2.3%,u,u,CCc1ccc(-c2cc(C(F)(F)F)n3nc(C(=O)Nc4c(C)nn(Cc5ccccc5C)c4C)cc3n2)s1
4.7,4.1%,-1.9%,0.7%,Cc1cc(C)nc(SCc2ccc(C(=O)N/N=C/c3ccccn3)cc2)n1
-10.4,-10.0%,1.4%,-15.4%,COc1ccccc1NS(=O)(=O)c1ccc(NC(=O)Cc2cccs2)cc1
-5.8,11.4%,-0.3%,-8.6%,O=C(NCCNc1ccc([N+](=O)[O-])cc1)c1ccc(Cl)cc1
10.3,0.7%,1.4%,17.5%,CC1(C)CN(O)CCN1O
3.9,-10.4%,-0.5%,0.4%,CCCC(=O)NC(=S)Nc1ccccc1C(=O)OC
x,-12.9%,2.6%,35.3%,S=C(NCc1ccccc1)NCc1ccccc1Cl
x,16.3%,-0.1%,7.0%,CC(C)(CO)CNC(=O)CCc1nnc(-c2ccc(-c3ccccc3)cc2)o1
-1.5,6.2%,0.0%,0.4%,S=C(Nc1ccccn1)NC1CCCCC1
x,-0.9%,2.7%,25.8%,O=C(CSc1nnc(CNC(=O)c2c(F)cccc2F)o1)NCC1CCCO1 (stereo unspecified)

(cont.)
GLA inh pH 4.5,miR-21 FLuc,Rango complex inh,Rango release inh,Compound
x,-1.1%,-0.7%,4.1%,CC(CCN1CCOCC1)c1ccccc1 (stereo unspecified)
-0.5,-6.7%,-4.4%,-11.7%,Cc1nc2ccc(S(=O)(=O)NC(C(=O)N3CCCCCC3)C(C)C)cc2s1 (stereo unspecified)
-26.4,-27.1%,2.9%,2.7%,COc1ccccc1CC(=O)Nc1cc2oc3ccccc3c2cc1OC
x,-56.3%,6.2%,7.0%,O=C(Nc1n[nH]c(=S)s1)c1ccc2ccccc2c1
u,-2.1%,1.1%,-10.4%,COc1ccc(OC)c(NC(=O)C2CCCN(S(=O)(=O)c3cccc4cccnc34)C2)c1 (stereo unspecified)
2.4,0.0%,5.8%,7.2%,COC(=O)c1cn(NC(=O)CC2CCCCC2)c(=O)c2ccccc12
3.8,-1.7%,0.2%,-0.2%,CNC(=O)N1c2ccccc2NC(=O)CC1C (stereo unspecified)
2.5,-9.8%,5.8%,15.4%,CS(=O)(=O)c1ccc(C(=O)NC2CCCCC2)cc1
-1.7,-61.0%,-0.9%,1.4%,CCOC(=O)c1sc(=NC(=O)c2cccs2)n(C)c1C
3.1,-2.2%,0.6%,-5.9%,N#C/C(C(=O)NCc1ccco1)=C1/SC(Cc2ccc(Cl)cc2)C(=O)N1c1ccccc1 (stereo unspecified)
x,x,u,-4.1%,O=C(Nc1ccncc1)c1ccc(Cl)c(S(=O)(=O)N2CCCCC2)c1
u,-2.7%,-0.5%,-9.6%,N#C/C(=C\c1cn(-c2ccccc2)nc1-c1cccnc1)c1nnc2n1CCCCC2
-0.3,-2.9%,-1.5%,-8.1%,Cc1cc(C)n2nc(NCc3cccc(Br)c3)nc2n1
x,-4.2%,-2.0%,8.0%,CCN1CCN(C(=O)C2COc3ccccc3O2)CC1 (stereo unspecified)
-3.1,-21.3%,0.6%,2.5%,Fc1ccc(CNc2ccc(CNc3ncn[nH]3)cc2)cc1
x,-44.9%,-1.9%,15.2%,Cn1ccs/c1=N\C(=O)Nc1cccc(C(F)(F)F)c1
x,x,0.3%,0.6%,COc1ccccc1NC(=O)C(C)OC(=O)CCCc1c[nH]c2ccccc12 (stereo unspecified)
-0.6,-0.7%,-2.1%,-6.0%,O=C(NC(Cc1ccccc1)C(=O)O)/C(=C\c1ccc(Cl)cc1)NC(=O)c1ccccc1 (stereo unspecified)
-8.1,-5.5%,1.1%,2.3%,CCNc1oc(-c2ccc(OC)cc2)nc1S(=O)(=O)c1ccc(Br)cc1
-4.9,-0.3%,-1.1%,-20.8%,NNC(=O)CNc1cccc(Cl)c1

Compound profiles, as listed above.
`O=C(Nc1n[nH]c(=S)s1)c1ccc2ccccc2c1` as listed: GLA inh pH 4.5: x; miR-21 FLuc: -56.3%; Rango complex inh: 6.2%; Rango release inh: 7.0%
`CS(=O)(=O)c1ccc(C(=O)NC2CCCCC2)cc1` as listed: GLA inh pH 4.5: 2.5; miR-21 FLuc: -9.8%; Rango complex inh: 5.8%; Rango release inh: 15.4%

The results go on.
GLA inh pH 4.5,miR-21 FLuc,Rango complex inh,Rango release inh,Compound
x,-3.2%,-0.6%,-15.3%,COc1ccc2ccccc2c1CNCCN1CCOCC1
0.8,2.5%,7.5%,9.2%,CC(=O)c1c(C)[nH]c(C(=O)NC(C)c2ccccc2)c1C (stereo unspecified)
x,x,0.3%,-6.8%,CN(C(=O)c1ccc(NC(=O)Cc2ccc(NC(=O)C3CCN(C(=O)C4CCC4)CC3)cc2)cc1)C1CC1
x,x,0.4%,-1.7%,COC(=O)c1ccc(COC(=O)CNC(=O)c2ccc(OC)cc2)cc1
-3.0,3.2%,2.7%,2.6%,Cc1cc(C)c(S(=O)(=O)NC(CC(=O)O)c2cccc([N+](=O)[O-])c2)c(C)c1 (stereo unspecified)
x,x,-5.0%,26.8%,Cc1noc(C)c1COc1ccccc1C(=O)NNC(=O)C(C)Oc1ccccc1F (stereo unspecified)
x,-32.5%,-1.9%,1.6%,Cc1nnc(CN(C)C(=O)c2cc(COc3ccc(C)c(C)c3)on2)o1
-0.1,-2.6%,2.0%,22.3%,CC(O)(C#CCN1CCCCCC1)c1ccccc1 (stereo unspecified)

Some of the compounds tested; the hit share may differ from the screen's.
